# Screening data deposited in PubChem by Vanderbilt University.
# GIRK2 act: GIRK2 channel activation. P48051. hit rate 0.05% among 63,000. HEK293-GIRK2 thallium flux, Thallos fluorescence. calls only for hits at 25 µM;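 active = among the strongest 0.2% of first-round signals and kept after retests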;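 note: first round at about 10 µM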
# Target sequence (P48051 whole entry, looked up): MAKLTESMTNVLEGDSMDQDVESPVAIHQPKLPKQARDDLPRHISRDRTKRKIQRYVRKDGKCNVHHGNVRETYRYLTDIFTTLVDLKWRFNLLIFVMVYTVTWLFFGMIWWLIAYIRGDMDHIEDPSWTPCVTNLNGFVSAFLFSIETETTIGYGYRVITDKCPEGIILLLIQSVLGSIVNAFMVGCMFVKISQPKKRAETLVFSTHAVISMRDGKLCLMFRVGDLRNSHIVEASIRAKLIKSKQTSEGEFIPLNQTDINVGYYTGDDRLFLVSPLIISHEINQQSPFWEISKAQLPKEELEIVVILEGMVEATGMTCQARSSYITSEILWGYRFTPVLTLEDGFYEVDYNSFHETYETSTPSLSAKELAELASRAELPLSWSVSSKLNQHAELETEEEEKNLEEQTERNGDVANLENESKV
# Calls only; i = inactive. Only part of the results is shown. The share of hits here may be higher or lower than overall.
1) CC(C)Sc1ccc(CC(=O)N2CCN(CCn3ccnc3-c3ccccc3)CC2)cc1
  GIRK2 act = i
2) Cc1csc(CN2CCN(C(=O)COc3ccccc3F)CC2)n1
  GIRK2 act = i
3) CCOP(=O)(Cc1ccc(C(=O)O)cc1)OCC
  GIRK2 act = i
4) c1ccc2c3c([nH]c2c1)CNCC3
  GIRK2 act = i
5) COc1c(C(C)C)cc2c(c1O)[C@@]1(C(=O)O)CCCC(C)(C)C1CC2 (stereo not given in full)
  GIRK2 act = i
6) CC[C@H](O)[C@@H](C)[C@H]1O[C@@H]1C[C@H](C)/C=C/C=C(\C)[C@H]1OC(=O)C[C@H](O)CC[C@@](C)(O)[C@@H](OC(C)=O)/C=C/[C@@H]1C
  GIRK2 act = i
7) O=NN(O)N1CCCC1C(=O)O (stereo not given)
  GIRK2 act = i
8) COc1ccccc1CNC(=O)c1c(O)c2sccc2n(Cc2ccccc2)c1=O
  GIRK2 act = i
9) Cn1c2cccc(=O)c-2nc2ccccc21
  GIRK2 act = i
10) CC(=O)c1c(O)c(C)c(O)c(Cc2c(O)c3c(c(C(=O)/C=C/c4ccccc4)c2O)OC(C)(C)C=C3)c1O
  GIRK2 act = i

# Some of the entries above in another layout.
No. | SMILES | GIRK2 act
5 | COc1c(C(C)C)cc2c(c1O)[C@@]1(C(=O)O)CCCC(C)(C)C1CC2 (stereo not given in full) | i
6 | CC[C@H](O)[C@@H](C)[C@H]1O[C@@H]1C[C@H](C)/C=C/C=C(\C)[C@H]1OC(=O)C[C@H](O)CC[C@@](C)(O)[C@@H](OC(C)=O)/C=C/[C@@H]1C | i

# The listing picks up, repeating the two entries before the break.
9) Cn1c2cccc(=O)c-2nc2ccccc21
  GIRK2 act = i
10) CC(=O)c1c(O)c(C)c(O)c(Cc2c(O)c3c(c(C(=O)/C=C/c4ccccc4)c2O)OC(C)(C)C=C3)c1O
  GIRK2 act = i
11) CCCOC(=O)c1ccc(Oc2coc3cc(OC(=O)N(C)C)ccc3c2=O)cc1
  GIRK2 act = i
12) CCC(COC(=O)c1cc(OC)c(OC)c(OC)c1)(c1ccccc1)N(C)C (stereo not given)
  GIRK2 act = i
13) CCCCCCC(C)(C)c1cc(OC)c2c(c1)OC(C)(C)[C@@H]1CC=C(C)C[C@@H]21
  GIRK2 act = i
14) O=C(Cc1ccc(Cl)cc1)N1CCN(Cc2nncn2-c2ccccc2F)CC1
  GIRK2 act = i
15) CC(C)N(CC#CCNC(=O)C1CC1)C(C)C
  GIRK2 act = i
16) c1ccc(CN2CC3CCC(C2)N3)cc1
  GIRK2 act = i
17) O=C(c1cnn2c1OCCC2)N1CCC2(CC1)OCCO2
  GIRK2 act = i
18) O=C(Cc1cccs1)N1CCN(Cc2nnnn2-c2ccc(F)cc2)CC1
  GIRK2 act = i
19) CCOc1ccc(CC(=O)N2CCOCC2CN(C)C)cc1 (stereo not given)
  GIRK2 act = i
20) Fc1ccc2onc(C3CCNCC3)c2c1
  GIRK2 act = i

# Brought forward from above: 5 entries, then new ones.
16) c1ccc(CN2CC3CCC(C2)N3)cc1
  GIRK2 act = i
17) O=C(c1cnn2c1OCCC2)N1CCC2(CC1)OCCO2
  GIRK2 act = i
18) O=C(Cc1cccs1)N1CCN(Cc2nnnn2-c2ccc(F)cc2)CC1
  GIRK2 act = i
19) CCOc1ccc(CC(=O)N2CCOCC2CN(C)C)cc1 (stereo not given)
  GIRK2 act = i
20) Fc1ccc2onc(C3CCNCC3)c2c1
  GIRK2 act = i
21) Cc1ccc2nc(N(CCN3CCOCC3)C(=O)Cc3cccc4ccccc34)sc2c1
  GIRK2 act = i
22) C=C(CO)C(=O)O[C@H]1CC(C)=CCCC(CO)=C[C@H]2OC(=O)C(=C)[C@H]12
  GIRK2 act = i
23) COC(=O)C1=COC(C)C2CN3CCC4(C(=O)Nc5ccccc54)C3CC12 (stereo not given)
  GIRK2 act = i
24) Cn1cc(CC(=O)N2CCN(CC(O)c3cccs3)CC2)c2ccccc21 (stereo not given)
  GIRK2 act = i
25) CCCCCCC(=O)O[C@H]1CC[C@H]2[C@@H]3C=CC4=CC(=O)CC[C@]4(C)[C@H]3CC[C@]12C
  GIRK2 act = i
26) Cn1cc(CC(=O)N2CCN(CCn3ccnc3)CC2)c2ccccc21
  GIRK2 act = i
27) CSc1cccc2sc(N(CCN(C)C)C(=O)Cc3ccccc3)nc12
  GIRK2 act = i
28) Cc1noc(C)c1CN1CCN(C(=O)Cc2ccc(Cl)cc2)CC1
  GIRK2 act = i
29) COc1ccc(/C=C/C(=O)CC(=O)/C=C/c2ccc(OC)c(OC)c2)cc1OC
  GIRK2 act = i
30) C=C(C)[C@@H]1CCC(C)=C[C@H]1c1c(O)cc(O)cc1CCCCC
  GIRK2 act = i
